StopGo FLuc: Primary qHTS Assay for Foot and Mouth Disease Virus Antivirals against NCGC Sytravon and CBC Compound Libraries: Firefly Luciferase Signal; HEK cells with a luciferase reporter of 2A StopGo recoding; Potency, µM (highest dose often 57.5 µM), for the others: at the top dose signal change, negative = less light; 0.23% of 120,000 active; AID 1745856, 2022; active = well fitted falling curve with a large enough effect; inconclusive = small, poorly fitted or top-dose-only effect; inactive = no such curve, though single readings can be large or run the other way; further: nearly all actives have a fitted effect of over 60% in size; overnight with compound
StopGo RLuc: Primary qHTS Assay for Foot and Mouth Disease Virus Antivirals against NCGC Sytravon and CBC Compound Libraries: Renilla Luciferase Signal; HEK cells with a luciferase reporter of 2A StopGo recoding; Potency, µM (highest dose often 57.5 µM), for the others: top-dose signal change, negative = less light; 0.32% of 120,000 active; AID 1745857, 2022; active means well fitted falling curve with a large enough effect; inconclusive means small, poorly fitted or top-dose-only effect; inactive means no such curve, though single readings can be large or run the other way; further: nearly all actives have a fitted effect of over 55% in size; overnight with compound
Active calls of the source: *; ? = inconclusive; & = joins results of further samples; [ ] = another dose, or the depositor's remark. On the % scale 0 is the no-effect control and ±100 the full control effect; potency means the concentration at half of the fitted maximal effect.

Start of the data: the first two entries, to show the layout:
compound,StopGo FLuc,StopGo RLuc
COc1ccc(CCC(=O)NCc2nc3cccnc3n2Cc2ccccc2)cc1,-10%,7%
C=C(C)CN1CCN(CCC(=O)O)CC1,3%,10%

Results, repeating the preview:
compound,StopGo FLuc,StopGo RLuc
COc1ccc(CCC(=O)NCc2nc3cccnc3n2Cc2ccccc2)cc1,-10%,7%
C=C(C)CN1CCN(CCC(=O)O)CC1,3%,10%
O=C(Nc1ccc(Nc2ccccc2)cc1)c1cc[n+]([O-])cc1,-7%,-22%
COc1ccc(-n2c(=O)c3ccccc3n(CC(=O)NCCc3ccc(OC)c(OC)c3)c2=O)cc1,-17%,-12%
COc1cccc(NC(=O)Cn2c(=O)c3c(ncn3Cc3ccccc3)n(Cc3ccccc3)c2=O)c1,13%,0%
O=C(NCC(c1ccc2c(c1)OCO2)N1CCOCC1)c1c(F)cccc1F (stereo not drawn),-8%,-5%
COc1ccc(S(=O)(=O)N(CCc2ccccc2)CC(=O)Nc2cc(Cl)ccc2C)cc1,-10%,104%[activator]
O=C(Cn1nc(-c2cccs2)c2ccccc2c1=O)NCC(F)(F)F,14%,4%
CCOc1ccc(NC(=O)C(C)Oc2cc(C)cc(C)c2)c2cccnc12 (stereo not drawn),-8%,-14%
CCOCCCNC(=O)c1cnc2sc(N3CCCCC3)nn2c1=O,-7%,-3%
Cc1oc(-c2ccc(C(=O)Nc3cccc(C(F)(F)F)c3)cc2)nc1CSc1ccccc1,?,?
COc1cc2c(C(=O)N3CCN(c4ccc(F)cc4)CC3)cn(CC(C)C)c(=O)c2cc1OC,-12%,65%[activator]
O=C(Nc1ncn(Cc2cccc(F)c2)n1)c1cc(S(=O)(=O)N2CCCC2)c(Cl)cc1Cl,11%,-3%
CCN(CC)CCNC(=O)C(C)c1n[nH]c(=O)c2ccccc12 (stereo not drawn),-3%,1%
O=c1c2c3c(sc2nc2c4ccccc4c(N4CCCCC4)nn12)CCC3,4%,-5%
Cc1nc2ccn(Cc3ccco3)c(=O)c2cc1C(=O)NCc1ccccc1,0%,?
CC(C)CCNc1nc(-c2ccc(S(C)(=O)=O)cc2)cs1,-10%,?
COc1ccc(CNC(=O)CCc2ncc(-c3c(F)cccc3F)o2)cc1,57%[activator],14%
Cc1ccc(NC(=O)Cn2ccn(Cc3ccc(Cl)cc3)c(=O)c2=O)cc1C,-15%,-13%
c1ccc(-c2csc(Nc3ccccn3)n2)cc1,186%[activator],9%
Cc1cc([N+](=O)[O-])ccc1N=Cc1ccc(C#Cc2ccccc2)cc1,175%[activator],4%
COc1cc(NC(=O)Cn2c(=O)n(CC3CCCO3)c(=O)c3cc(OC)c(OC)cc32)cc(OC)c1 (stereo not drawn),-2%,1%
CC(C)C(=O)Nc1ccc2c(C(C(=O)O)N3CCN(C)CC3)c[nH]c2c1 (stereo not drawn),4%,-6%
O=C(C1CCN(S(=O)(=O)c2ccc(Br)s2)CC1)N1CCN(c2ccc(F)cc2)CC1,0%,-5%

Sorted by heavy-atom count (ascending): some entries from above.
compound,StopGo FLuc,StopGo RLuc
C=C(C)CN1CCN(CCC(=O)O)CC1,3%,10%
c1ccc(-c2csc(Nc3ccccn3)n2)cc1,186%[activator],9%
CC(C)CCNc1nc(-c2ccc(S(C)(=O)=O)cc2)cs1,-10%,?
CCN(CC)CCNC(=O)C(C)c1n[nH]c(=O)c2ccccc12 (stereo not drawn),-3%,1%
CCOCCCNC(=O)c1cnc2sc(N3CCCCC3)nn2c1=O,-7%,-3%
CC(C)C(=O)Nc1ccc2c(C(C(=O)O)N3CCN(C)CC3)c[nH]c2c1 (stereo not drawn),4%,-6%
COc1ccc(CNC(=O)CCc2ncc(-c3c(F)cccc3F)o2)cc1,57%[activator],14%
Cc1nc2ccn(Cc3ccco3)c(=O)c2cc1C(=O)NCc1ccccc1,0%,?
O=C(C1CCN(S(=O)(=O)c2ccc(Br)s2)CC1)N1CCN(c2ccc(F)cc2)CC1,0%,-5%
COc1ccc(S(=O)(=O)N(CCc2ccccc2)CC(=O)Nc2cc(Cl)ccc2C)cc1,-10%,104%[activator]
Cc1oc(-c2ccc(C(=O)Nc3cccc(C(F)(F)F)c3)cc2)nc1CSc1ccccc1,?,?
COc1cc2c(C(=O)N3CCN(c4ccc(F)cc4)CC3)cn(CC(C)C)c(=O)c2cc1OC,-12%,65%[activator]
COc1cc(NC(=O)Cn2c(=O)n(CC3CCCO3)c(=O)c3cc(OC)c(OC)cc32)cc(OC)c1 (stereo not drawn),-2%,1%
COc1cccc(NC(=O)Cn2c(=O)c3c(ncn3Cc3ccccc3)n(Cc3ccccc3)c2=O)c1,13%,0%

The results go on:
compound,StopGo FLuc,StopGo RLuc
CC(C)C(=O)NCc1ccc(-c2nc3ccccc3s2)cc1,88%[activator],-15%
Cc1cccc(N2CCN(S(=O)(=O)c3cc(C(=O)Nc4ccccc4Cl)ccc3F)CC2)c1C,-10%,1%
COc1ccc(C(=O)N2CC(=O)Nc3ccc(C)cc3C2c2ccc(F)cc2)c(OC)c1 (stereo not drawn),1%,21%
CCOc1ccc(NC(=O)c2ccc(F)c(S(=O)(=O)N(Cc3ccc(C(=O)OC)cc3)Cc3ccc(OC)c(OC)c3)c2)cc1,-18%,-9%
COc1ccc(C(CC(=O)O)NC(=O)c2cc3ccccc3oc2=O)cc1OC (stereo not drawn),-13%,-8%
O=c1c2oc3ccccc3c2n(Cc2cccc(F)c2)c(=O)n1Cc1ccc2c(c1)OCO2,-18%,-8%
CCCNC(=O)CN(C)Cc1cccc2cccnc12,21%,3%
O=C(O)c1ccc(CSc2ccc(Cl)cc2)cc1,89%[activator],-11%
CCOC(=O)c1ccc(NC(=O)CC2C(=O)N(c3cccc(OC)c3)C(=O)N2Cc2cccnc2)cc1 (stereo not drawn),-15%,2%
CC(C)CCN1CCCC1C(=O)O (stereo not drawn),-4%,-2%
Cc1c(C(=O)Nc2ccccc2Br)oc2ccc(S(=O)(=O)N3CCCCCC3)cc12,21%,-12%
CC1CCCCC1NC(=O)c1csc2ccccc12 (stereo not drawn),66%[activator],12%
CC(NC(=O)CCc1ncc(-c2ccc(F)cc2F)o1)c1ccc2c(c1)NC(=O)CO2 (stereo not drawn),4%,-10%
COc1cccc(CNC(=O)Cn2c(SCC(=O)Nc3ccc(C)c(C)c3)nc3ccccc32)c1,5%,20%
CC(NC(=O)c1nn(C)c(=O)c2ccccc12)c1cccs1 (stereo not drawn),0%,32%[activator]
COc1cccc(C2SCC(=O)Nc3c2c(C)nn3C)c1OCc1ccccc1C (stereo not drawn),-2%,-9%
O=C(Nc1nc(-c2ccc(Br)cc2)cs1)c1cc(=O)c2ccccc2o1,1%,-2%
CCc1ccc2oc(-c3cccc(NC(=O)c4ccc(-c5cccc([N+](=O)[O-])c5)o4)c3)nc2c1,238%[activator],-3%
CCC(C)NC(=O)CSc1nc(-c2ccccc2)[nH]c1S(=O)(=O)c1ccc(C)cc1 (stereo not drawn),-2%,114%[activator]
Cc1ccc(N2C(=O)N(Cc3cccc(Cl)c3)c3ccccc3S2(=O)=O)cc1,-2%,16%
C=CCN(CC=C)Cc1c(C)[nH]c2ccc(CC)cc2c1=O,18%,12%
COc1ccc(CCNC(=O)c2ccc3c(c2)CCN3S(=O)(=O)c2ccc(C)cc2)cc1,1%,7%
CN(C)c1cccc(C(=O)NNC(=O)c2ccc(CSc3ccc(Cl)cc3)cc2)c1,16%,-1%[1.06 µM]
Cc1ccc(-n2c3nc(=O)[nH]c(=O)c-3cc3c(C)nn(-c4ccccc4)c32)cc1Cl,11%,7%
COc1ccc(OC)c(CCNC(=O)c2ccc3c(c2)N(Cc2ccccc2)CCS3)c1,-1%,22%
O=c1oc2ccc(Br)cc2cc1-c1csc(-c2ccc(Cl)cc2)n1,-9%,-2%
O=C(N/N=C1\CC2CCC1C2)c1ccc(Cl)cc1Cl (stereo not drawn),24%,-9%
Cn1c(NCc2ccc(Cl)cc2)nc2c1c(=O)n(Cc1ccc(Cl)cc1)c(=O)n2C,-7%,-9%
CCN(CC)C(CNC(=O)c1nn(-c2ccccc2)c(=O)c2ccccc12)c1ccccc1 (stereo not drawn),3%,-11%
CSc1ccc(CNC23CC4CC(C)(CC(C)(C4)C2)C3)cc1,2%,10%
COCc1nc2cccnc2n1C1CCN(S(=O)(=O)N(C)C)CC1,1%,-3%
Cc1oc(-c2ccccc2)nc1Cn1c(=O)cc(-c2ccccc2)c2c(C)nn(C)c21,-15%,-6%
CCc1ccc(N2C(=O)NC(=O)C3(Cc4cc(C)ccc4N(C)C3)C2=O)cc1 (stereo not drawn),-10%,-23%
CCN(CC)c1nc2c(S(=O)(=O)c3cccc(Cl)c3)nnn2c2ccsc12,0%,133%[activator]
Cc1nc2ccccc2c(C)c1CC(=O)NC(C)c1ccco1 (stereo not drawn),0%,1%
COC(=O)c1ccccc1NC(=O)NCCc1c(C)nn(C)c1C,15%,0%
COc1cccc(CCNC(=O)c2ccc(Cn3c(SCc4ccccc4)nc4cccnc43)cc2)c1,78%[activator],-15%
Cc1cccc(CNC(=O)C2CCN(S(=O)(=O)c3cccc4nonc34)CC2)c1,-19%,-11%
COCCNc1nc(-c2ccc(NC(=O)C(C)(C)C)cc2)cs1,209%[activator],3%
CC(Oc1ccc(-c2ccccc2)cc1Cl)C(N)=O (stereo not drawn),0%,1%
Clc1ccc(NN=C2c3ccccc3-c3ccccc32)cc1Cl,26%,5%
O=C(C(Sc1nc2ccccc2o1)c1ccccc1)N1CCCCC1 (stereo not drawn),83%[activator],248%[activator]
c1ccc(Cn2ncc3c2CCCC3NCc2cscn2)cc1 (stereo not drawn),-8%,-12%
Cc1ccc(-c2ccc(C(=O)O)n2C)cc1,37%[activator],20%
Cn1c(=O)c2c(nc(CN3CCc4ccccc4C3)n2CCCc2ccccc2)n(C)c1=O,?,?
CCOCCCNC(=O)CCC(=O)NNc1nc2ccccc2c2nc(C)nn12,-20%,-14%
O=c1c2cc3c(cc2nc2sc(Nc4cccc([N+](=O)[O-])c4)nn12)OCO3,2%,-22%
Cc1cc(S(=O)(=O)N2CCCC2)ccc1OCC(=O)Nc1ccccc1Oc1ccccc1,-5%,-10%
Cc1nc2ccc(C(=O)Oc3ccc(C4SCCS4)cc3)cc2nc1C,148%[activator],-3%
O=C(Nc1ccc2c(c1)CCCN2C(=O)c1cccs1)c1ccc(F)c(F)c1,5%,?
Cc1nc2sc3c(c2c2nc(C(=O)NCCN4CCOCC4)nn12)CCC3,0%,-13%
CCOC(=O)c1c(C)c(C(=O)Nc2ccc(C)c(F)c2)c(C)n1C,68%[activator],52%[activator]
COc1ccc(-n2nnnc2SCC(=O)NCCc2ccccc2)cc1,-5%,16%
COc1ccccc1CNC(=O)CCCCn1c(=O)c2ccccc2n(CC(=O)Nc2c(C)cc(C)cc2C)c1=O,-13%,-15%
Cc1ccc(NC(c2cccc(Cl)c2)c2nnc(-c3ccccc3)o2)cc1F (stereo not drawn),7%,16%
Cc1cc(C)c(NC(=O)C2CCN(c3nc4ccccc4[nH]3)CC2)c(C)c1,-27%,-24%
COc1ccc(C(=O)Nc2ccc3nc4n(c(=O)c3c2)CCCCC4)cc1OC,0%,-9%
Cc1ccc(NC(=O)Cc2ccc(-n3c(C)nc4cccnc43)cc2)cc1C,-13%,?
O=C(Nc1cc(F)ccc1F)N1CCC(CN2CCCC2)CC1,-21%,-9%
Cc1ccc(CNC(=O)C(=O)NCC(c2cccs2)S(=O)(=O)c2ccc(C)cc2)cc1 (stereo not drawn),?,-16%

(cont.)
compound,StopGo FLuc,StopGo RLuc
CCn1c(C(=O)NCc2ccccc2C)cc2oc3ccccc3c21,?,?
CCOc1ccc(S(=O)(=O)N2CCN(c3cccc(C(F)(F)F)c3)CC2)cc1OCC,-9%,-7%
CC(C)Oc1nc2ccccc2nc1C(C#N)C(=O)NCc1ccccc1 (stereo not drawn),4%,4%
O=C(NCC1(c2ccccc2)CCC1)c1cc2ccccc2oc1=O,0%,-4%
COc1ccc(N2CC(C(=O)O)CC2=O)cc1OC (stereo not drawn),1%,10%
O=C(NC1CCCC1)C(=O)c1ccc2c(c1)CCC2,148%[activator],144%[activator]
Cc1cc2nc(/C(C#N)=C\c3ccc(O)c(I)c3)[nH]c2cc1C,58%[activator],10%
NC(=O)CCN(C(=O)c1ccc(C(F)(F)F)cc1)c1ccc(F)cc1,25%,-3%
O=c1c2ccccc2n2c(-c3ccccc3O)nnc2n1Cc1ccc(F)cc1,-20%,-16%
Cc1cc(C)nc(/N=C(\N)Nc2ccc(C(C)C)cc2)n1,?,?
CCOc1ccc(C2/C(=C(\O)c3ccc(C)c(F)c3)C(=O)C(=O)N2Cc2ccco2)cc1OC (stereo not drawn),-7%,9%
COc1ccc(Cn2cc(C(=O)c3ccc(C)cc3)c(=O)c3cc(OC)c(OC)cc32)cc1,-14%,19%
CCN1CCc2c(sc(-n3cccc3)c2C(C)NC(=O)Nc2ccc(C(=O)OC)cc2)C1 (stereo not drawn),-13%&-4%,-10%&-8%
N#Cc1ccc(S(=O)(=O)N2CCN(CC(=O)Nc3ccccc3C(=O)NC3CCCC3)CC2)cc1,-2%,-4%

From PubChem
